Cruzain noTriton: cruzain (T. cruzi) inhibition without detergent | Potency, µM, without a hit: max response, negative = inhibition, hits mostly inhibitors | purified cruzain, Z-FR-AMC fluorescence, no detergent | actives 2.3% (n = 200,000) | P25779;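 also: plate controls were enzyme without inhibitor for no effect and buffer without enzyme for full effect; nearly all actives have a fitted effect of over 40% in size; top concentration of the series not given in the record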
Target sequence (P25779 123-467 limits assumed): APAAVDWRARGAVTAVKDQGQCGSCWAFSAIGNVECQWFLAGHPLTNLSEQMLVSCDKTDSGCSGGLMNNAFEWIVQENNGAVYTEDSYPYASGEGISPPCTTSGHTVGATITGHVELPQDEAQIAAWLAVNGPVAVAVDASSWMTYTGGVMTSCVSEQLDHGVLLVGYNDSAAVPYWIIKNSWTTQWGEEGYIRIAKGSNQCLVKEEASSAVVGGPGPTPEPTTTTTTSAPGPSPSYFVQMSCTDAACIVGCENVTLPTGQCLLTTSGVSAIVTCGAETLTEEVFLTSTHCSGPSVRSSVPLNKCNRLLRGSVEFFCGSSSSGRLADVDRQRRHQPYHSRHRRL
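Detergent-free condition (0.00005% Triton X-100) in acetate buffer pH 5.5 with DTT. 1.5 nM enzyme and compound were pre-mixed 15 min, then 2 uM Z-FR-AMC substrate added; reaction progress from fluorescence change between first and third reads (60 s).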
2A StopGo: FMDV 2A StopGo reporter, luciferase signal. human cells with a luciferase reporter of 2A StopGo recoding; control for the full effect not named in the record. Potency, µM (doses to about 57.9 µM), without a hit: at the highest dose signal change, negative = less light. actives 1.2% (n = 410,000). AID 1159524; active = well fitted falling curve with a large enough effect; inconclusive = small, poorly fitted or top-dose-only effect; inactive = no such curve, though single readings can be large or run the other way; tested in HEK293T cells; also: % is scaled to controls: 0 for no effect and ±100 for the full control effect; nearly all actives have a fitted effect of over 45% in size; luciferase light after 4 h
NS1 inh: influenza NS1 inhibition | S. cerevisiae slowed by influenza A NS1, growth recovery by OD600 | AID 2326 | Potency, µM (series often up to 46.1 µM), for the others: at the top dose activity, positive = more growth | actives 0.4% (n = 270,000); active means well fitted rising curve with a large enough effect; inconclusive means small, poorly fitted or top-dose-only effect; inactive means no such curve, though single readings can be large or run the other way; also: nearly all actives have a fitted effect of over 50% in size
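OD600 was taken as the measure of yeast growth restored by compound in an NS1-expressing S. cerevisiae strain. Cells had been washed out of glucose medium and diluted 1:100 into galactose -URA medium, pH 6.0.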
LASV entry inh: blocks Lassa virus binding to or entry into cells; Potency, µM (top dose mostly 37.9 µM), inactives show at the highest dose activity change, negative = inhibition, usual class: inhibitors; actives 1.2% (n = 300,000); AID 540256; Lassa virus pseudotype entry inhibition, cell reporter; control for the full effect not named in the record; active means well fitted inhibition curve with a large enough effect; inconclusive means small, poorly fitted or top-dose-only effect, or effect the other way; inactive means flat fitted curve, though single readings scatter; tested in HEK293 cells; also: % is scaled to controls: 0 for no effect and ±100 for the full control effect; nearly all actives have a fitted effect of over 50% in size; luciferase read-out
RE007 growth inh: less growth of the S. pombe RE007 Vpr strain. S. pombe RE007 Vpr strain, BacTiter-Glo ATP luminescence, 24 h; control for the full effect not named in the record. Potency, µM (titrated, usually from 92.2 µM), for the others: at the top dose activity change, negative = less growth. actives 0.21% (n = 360,000). AID 651644; active = well fitted falling curve with a large enough effect; inconclusive = small, poorly fitted or top-dose-only effect; inactive = no such curve, though single readings can be large or run the other way;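 also: % is scaled to controls: 0 for no effect and ±100 for the full control effect; nearly all actives have a fitted effect of over 50% in size; the assay follows cell death caused by Vpr and the record does not say whether a fall means rescue or toxicity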
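Fission yeast strain RE007, carrying one chromosomally integrated HIV-1 vpr copy, was seeded at OD 0.01 in PMG+AL medium with 23 nL pinned compound. After 24 h at 30 °C and 99% humidity, viability was read by BacTiter-Glo luminescence.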
SARS PLP yeast: blocks SARS-CoV papain-like protease in a yeast assay; AID 485353; S. cerevisiae expressing SARS-CoV PLpro, growth rescue; control for the full effect not named in the record; Potency, µM (doses to about 32.9 µM), for the others: at the highest dose activity, positive = growth rescue; actives 0.19% (n = 330,000); active means well fitted rising curve with a large enough effect; inconclusive means small, poorly fitted or top-dose-only effect; inactive means no such curve, though single readings can be large or run the other way; also: 0% is about no effect; nearly all actives have a fitted effect of over 55% in size; growth read by luminescence after 48 h
Cruzain inh Det: cruzain (T. cruzi) inhibition with detergent. P25779. purified cruzain, Z-FR-AMC fluorescence, 0.01% Triton. Potency, µM, inactives show max response, negative = inhibition, hits mostly inhibitors. actives 0.43% (n = 200,000). AID 1478;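 also: plate controls were neutral wells for no effect and buffer without enzyme for full effect; nearly all actives have a fitted effect of over 40% in size; top concentration of the series not given in the record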
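15 min RT preincubation of 1.5 nM cruzain with compound, then 2 uM Z-FR-AMC added; kinetic AMC fluorescence, 60 s delta. Triton X-100 0.01%, pH 5.5.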
Marburg entry inh: inhibitors of Marburg virus binding or cell entry. Marburg virus pseudotyped entry inhibition, cell reporter; control for the full effect not named in the record; about a third of the inactives were read at about 46 µM. Potency, µM (series often up to 37.8 µM), without a hit: at the highest dose activity change, negative = inhibition, usual class: inhibitors. actives 1.8% (n = 300,000). AID 540276; active = well fitted inhibition curve with a large enough effect; inconclusive = small, poorly fitted or top-dose-only effect, or effect the other way; inactive = flat fitted curve, though single readings scatter; tested in HEK293 cells; about a fifth of its hits are not listed in these tables; also: % is scaled to controls: 0 for no effect and ±100 for the full control effect; luciferase read-out
Active calls of the source: *; ? = inconclusive; / = no result given; & = joins results of further samples; [ ] = remark or other dose. Unless noted, calls follow the shape of the dose curve; as a rule, active = well fitted curve in the direction sought with a large enough effect; inconclusive = small, poorly fitted or top-dose-only effect, or another doubt; inactive = no such curve, though single readings can be large; an effect the other way counts as inactive or inconclusive. Potency is read from the fitted curve at half-maximal effect. Compounds as they come; about 4.7% have a hit in one of these screens.

Molecule | Cruzain noTriton | 2A StopGo | NS1 inh | LASV entry inh | RE007 growth inh | SARS PLP yeast | Cruzain inh Det | Marburg entry inh
COc1ccccc1-c1nc2ccccc2c(=O)n1NC(=O)c1cccs1 | 1.8% | -21.5% | 0.6% | 12.9% | / | 5.2% | -3.5% | 15.8%
C#CCn1c2ccccc2c2nc3ccccc3nc21 | / | 0.0% | -2.8% | ? | 10.2% | -2.9% | / | ?
C=CCNC(=S)N/N=C/c1ccc(C)s1 | / | 1.1% | -2.9% | / | ? | 0.4% | / | /
COc1ccc(C(CNC(=O)COc2ccc(F)cc2Cl)N2CCCCC2)cc1 (stereo unspecified) | / | -6.5% | / | -1.5% | -28.8% | 1.4% | / | -5.9%
CC(=O)c1cccc(NC(=O)c2ccc(N(Cc3ccc(C)cc3)S(C)(=O)=O)cc2)c1 | ? | ? | 5.3% | ? | 1.7% | 8.0% | -14.6% | ?
O=S(=O)(NCC(c1ccco1)N1CCN(c2ccccc2F)CC1)c1ccc2c(c1)OCCO2 (stereo unspecified) | 5.2% | -31.9% | ? | -16.7% | 4.6% | -15.0% | -5.8% | ?
Nc1nc(NCc2ccco2)nc(Nc2ccc(F)cc2)c1[N+](=O)[O-] | / | -18.8% | 0.7% | 1.8% | 1.5% | -5.0% | / | ?
Cc1ccc(CN2CCC(n3nccc3NC(=O)c3ccccc3C)CC2)o1 | / | -18.1% | 9.1% | ? | -10.0% | / | / | -0.5%
CCOc1ccc2c(c1)c(=O)c(S(=O)(=O)c1ccc(C)cc1)cn2CC | / | 9.9% | 4.6% | / | 7.5% | -5.7% | / | /
CCOC(=O)c1c(-c2ccccc2)[nH]c2ccc(O)cc12 | 9.8% | ? | -30.8% | -6.9% | 12.9% | 0.8% | -5.5% | ?
COc1ccc(N2C(=O)c3ccccc3NC2(C)C)cc1 | / | 18.6% | / | ? | 10.1% | -1.0% | / | ?
COc1ccc(-n2ncc(C(=O)NCc3cccs3)c2C2CCN(C(=O)OC(C)(C)C)CC2)cc1 | 0.4% | 17.7% | / | ? | / | / | -4.5% | /
COc1ccc(OC)c(Nc2nc(N)nc(CSc3nnc(-c4ccncc4)o3)n2)c1 | 9.0% | / | 3.2% | / | / | -3.4% | 7.8% | 5.1%
Cc1ccc(-n2nc3c([n+]2[O-])CCc2nonc2-3)cc1 | / | 43.8%[activator] | 2.4% | 8.0% | -6.6% | -0.3% | / | ?
CC(C)(C)c1ccc(/C=C/C(=O)N2CCOCC2)cc1 | 1.1% | 48.0%[activator] | 9.2% | -7.0% | 2.7% | 17.5% | -3.2% | ?
Cc1cccc([N+](=O)[O-])c1NC(=O)CN(Cc1ccccc1)Cc1ccccc1 | -2.9% | ? | -6.3% | ? | 1.5% | 0.0% | -4.3% | ?
C[C@H]1CN(C2CCCCC2)C(=O)[C@@H]1CC(=O)NCc1ccccc1 | / | 7.0% | -16.6% | / | 1.8% | 1.9% | / | /
COC(=O)CC(=O)Cc1nc(N)nc(Nc2ccc(C)c(C)c2)n1 | 19.6% | / | 14.7% | 3.4% | -2.0% | 15.2% | -1.2% | 13.5%&13.5%
CCCCNS(=O)(=O)c1ccc(OCC(=O)OC)cc1 | 1.6% | 29.3% | 7.4% | -3.2% | 15.0% | 5.8% | -0.6% | 10.8%
C=CCOC(=O)C1=C[C@@H](c2coc3ccccc3c2=O)[C@H](CCCO)[C@@H](OCC)O1 | / | 0.0% | -5.2% | / | -24.2% | 0.1% | / | /
CCc1ccc(OCC(=O)NC(=S)Nc2ccc(C)cc2C)c(Br)c1 | 12.6µM* | / | -7.4% | 4.9% | -11.9% | 14.6% | 6.0% | 25.7%
Cc1ccc(S(=O)(=O)N2CCC(C(=O)OCC(=O)N(C)CC(=O)Nc3ccc(F)cc3)CC2)cc1C | / | ? | / | ? | -1.7% | -5.5% | / | 14.2%[46.1 µM]
Cc1c(-c2ccccc2)n[nH]c1C(=O)N=Nc1c(O)[nH]c2ccccc12 | / | 26.1% | -3.8% | ? | -14.8% | 3.9% | / | ?
Cc1occc1-c1nnc(SCC(=O)c2ccc(Cl)cc2)n1CC1CCCO1 (stereo unspecified) | -14.4% | 4.2% | 8.8% | ? | 8.2% | 0.5% | -2.0% | -8.4%
NC(=O)CN1CC(c2ccccc2)CC1=O (stereo unspecified) | 8.0% | -10.6% | 6.0% | 2.9% | -0.6% | -0.4% | 4.8% | 1.1%
CC(=O)NC1=NN(C(C)=O)C2(S1)C(=O)N(CC(C)C)c1ccc(C)cc12 (stereo unspecified) | / | 80.6%[activator] | -1.5% | / | 7.3% | -0.4% | / | /
COc1ccc(Sc2ncnc3onc(C)c23)cc1 | / | 4.1% | 0.3% | / | -9.8% | -0.2% | / | /
COc1cccc(NC(=O)Cn2nnc(C(=O)NCCc3ccccc3)c2N)c1 | -24.5% | -13.8%&2.2% | 8.8% | 7.1%[46.1 µM] | 3.5% | 0.7% | -0.4% | /
O=C(NC1CCCC1)C(c1ccc(Cl)cc1)N(Cc1ccc(F)cc1)C(=O)CCl (stereo unspecified) | 1.0% | ? | 2.0% | ? | ? | 4.1% | -1.0% | ?
CCn1c(C)nc2cc(C(=O)NNC(=S)Nc3ccc(OC)cc3)ccc21 | / | 0.3% | / | 5.0% | -9.3% | -1.1% | / | 8.9%[46.1 µM]
O=C(CSc1nnc(COc2ccccc2)o1)Nc1cc(C(F)(F)F)ccc1Cl | -4.7% | -6.3% | / | -14.0%[46.1 µM] | / | / | -10.4% | -6.4%[46.1 µM]
O=C(NC(=S)Nc1ccc(Cc2ccncc2)cc1)c1ccccc1F | / | -20.3% | -7.2% | -50.7% | -14.4% | 0.0% | / | ?
CCC(NC(=O)c1cc(COc2cncc(Cl)c2)on1)c1ccncc1 (stereo unspecified) | / | -16.0% | 2.8% | / | -7.9% | 15.8% | / | /
Fc1ccc(-c2oncc2-c2nnnn2-c2ccccc2)cc1F | -4.7% | -5.3% | -5.7% | 1.4% | 7.7% | 4.5% | -3.4% | 3.8%
O=C(CCc1ccc(S(=O)(=O)NCCc2ccccc2)cc1)Nc1ccc2c(c1)OCCO2 | -2.6% | 10.3% | 11.7% | 4.1% | / | 11.0% | -3.2% | ?
COc1ccc(-c2cc(C(=O)Nc3c(C)nn(Cc4ccccc4)c3C)no2)cc1 | -15.0% | -15.0% | -1.1% | ? | -6.5% | 1.3% | 2.1% | -20.0%
COC(=O)C(C)NC(=O)C(C)NC(=O)OCc1ccccc1 (stereo unspecified) | -3.5% | -9.7% | 2.4% | 20.1% | 15.0% | 0.3% | 0.0% | -22.7%
Cc1ccc(-n2c(N)c(Br)c(=O)[nH]c2=O)cc1C | / | -17.7% | 2.9% | 25.4%[46.1 µM] | -20.2% | 0.2% | / | 10.4%[46.1 µM]
COc1ccc(S(=O)(=O)NCCc2nnc3ccc(SCC(=O)Nc4cc(C)on4)nn23)cc1 | / | 15.0% | / | -6.0% | 2.9% | -5.7% | / | 20.5%[46.1 µM]
COc1ccc(C(=O)Nc2ccccc2N2CCCCC2)cc1[N+](=O)[O-] | / | ? | -50.5% | / | -0.5% | -2.0% | / | /
COc1cc(OC)c(NS(=O)(=O)c2ccc3c(c2)CCCN3C(C)=O)cc1Cl | 17.5% | 24.0% | / | 1.5%[46.1 µM] | / | / | -6.7% | /
COc1cccc(CN2CCNC(=O)C2CC(=O)NCC2CCOCC2)c1 (stereo unspecified) | / | 9.6% | 6.8% | / | 5.4% | 0.7% | / | /
CCOC(=O)c1[nH]c2ccc(OC)cc2c1NC(C)=O | -7.5% | -5.5% | 3.6% | -4.6% | -11.6% | 11.4% | -3.4% | 12.4%
CCOc1ccc(CCNC(=O)COC(=O)c2ccc(Br)o2)cc1OCC | / | -2.0% | / | ? | -7.7% | 1.2% | / | -4.7%
CCC(=O)N1CCc2cc(Br)cc(S(=O)(=O)NCC3CCCO3)c21 (stereo unspecified) | -4.4% | 80.4%[activator] | -0.9% | 13.6% | -4.8% | -1.4% | 1.2% | ?
CCOC(=O)c1c(C)nc(C(Cl)(Cl)Cl)nc1N | / | 1.9% | -9.5% | 20.2%[46.1 µM] | -17.9% | 0.3% | / | 15.8%[46.1 µM]
CCN1CCc2c(sc(NC(=O)c3ccc(S(=O)(=O)N4CCCC4)cc3)c2C(=O)NC)C1 | / | 0.0% | 18.7% | / | 1.0% | -6.0% | / | /
CCOc1ccc(-c2ccc(SCC(=O)NC3CCCCC3)nn2)cc1 | / | 6.8% | -1.3% | -15.6% | -13.6% | -4.7% | / | ?
O=C(CSc1nn(-c2ccccc2)c(=S)s1)NC(=O)NCc1ccco1 | ? | ? | 4.4% | -20.0% | -2.7% | 8.0% | -5.3% | -18.1%
Fc1cc(Cl)ccc1NC(=S)NCCN1CCOCC1 | / | ? | 1.0% | -10.8%[46.1 µM] | 3.6% | -1.3% | / | 7.7%[46.1 µM]
COC(=O)c1ccc(C)c(NC(=O)C2COc3ccccc3O2)c1 (stereo unspecified) | 10.2% | -12.3% | -4.8% | 1.8% | -2.5% | -0.3% | 2.6% | 7.1%
O=C(COC(=O)c1cc2ccccc2cc1O)Nc1cccnc1Cl | -6.5% | 7.5% | 5.4% | 24.4% | ? | 3.3% | 0.9% | 13.2%
COc1ccc(Cn2ccc3nc(C)c(C(=O)N4CCN(c5ccccc5OC)CC4)cc3c2=O)cc1 | 24.9% | ? | / | -28.1%[46.1 µM] | / | / | -2.8% | /
O=C1CSC(c2ccc([N+](=O)[O-])cc2)N1CCN1CCCCC1 (stereo unspecified) | / | -17.2% | / | -2.1% | 6.2% | 2.0% | / | -18.4%[46.1 µM]
Clc1ccc(-c2csc(Nc3cccnc3)n2)cc1 | / | 10.1% | 2.5% | -1.3%[46.1 µM] | -1.9% | -5.4% | / | ?
O=C(CSc1ccc(-c2cccnc2)nn1)c1ccc([N+](=O)[O-])cc1 | / | -17.3% | / | 21.4%[46.1 µM] | 6.8% | -4.9% | / | 2.0%[46.1 µM]
